2A StopGo: lowers the luciferase signal of an FMDV 2A StopGo reporter; AID 1159524; human cells with a luciferase reporter of 2A StopGo recoding; control for the full effect not named in the record; Potency, µM (titrated, usually from 57.9 µM), for inactives: at the highest dose signal change, negative = less light; 410,000 compounds, 1.2% hits; active = well fitted falling curve with a large enough effect; inconclusive = small, poorly fitted or top-dose-only effect; inactive = no such curve, though single readings can be large or run the other way; tested in HEK293T cells; also: % is scaled to controls: 0 for no effect and ±100 for the full control effect; nearly all actives have a fitted effect of over 45% in size; luciferase light after 4 h
Cruzain inh Det: blocks cruzain activity in presence of Triton detergent; P25779; purified cruzain, Z-FR-AMC fluorescence, 0.01% Triton; Potency, µM, inactives show max response, negative = inhibition, most hits filed as inhibitors; 200,000 compounds, 0.43% hits; AID 1478; active = well fitted curve in the direction sought with a large enough effect; inconclusive = small, poorly fitted or top-dose-only effect, or another doubt; inactive = no such curve, though single readings can be large; an effect the other way counts as inactive or inconclusive;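 also: plate controls were neutral wells for no effect and buffer without enzyme for full effect; nearly all actives have a fitted effect of over 40% in size; top concentration of the series not given in the record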
Target sequence (P25779 123-467 limits assumed): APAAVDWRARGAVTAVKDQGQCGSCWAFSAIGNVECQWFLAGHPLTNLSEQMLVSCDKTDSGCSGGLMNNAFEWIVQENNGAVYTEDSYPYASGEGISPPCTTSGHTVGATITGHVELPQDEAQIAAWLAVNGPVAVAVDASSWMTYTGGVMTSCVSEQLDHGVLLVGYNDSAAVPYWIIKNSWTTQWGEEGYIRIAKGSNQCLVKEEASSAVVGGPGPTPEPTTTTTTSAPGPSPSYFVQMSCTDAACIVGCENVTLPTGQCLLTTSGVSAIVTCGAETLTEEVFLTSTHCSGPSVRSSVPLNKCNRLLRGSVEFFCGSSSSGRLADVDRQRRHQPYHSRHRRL
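Enzyme 1.5 nM, Z-FR-AMC 2 uM, NaOAc 100 mM pH 5.5, DTT 5 mM, Triton X-100 0.01%; 15 min RT compound preincubation; kinetic ex360/em450, 60 s delta.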
MARV entry inh: blocks Marburg virus binding to or entry into cells. Marburg virus pseudotyped entry inhibition, cell reporter; control for the full effect not named in the record; about a third of the inactives were read at about 46 µM. Potency, µM (series often up to 37.8 µM), without a hit: at the highest dose activity change, negative = inhibition, hits mostly inhibitors. 300,000 compounds, 1.8% hits. AID 540276; active = well fitted inhibition curve with a large enough effect; inconclusive = small, poorly fitted or top-dose-only effect, or effect the other way; inactive = flat fitted curve, though single readings scatter; tested in HEK293 cells; about a fifth of its hits are not listed in these tables; also: % is scaled to controls: 0 for no effect and ±100 for the full control effect; luciferase read-out
Cruzain noTriton: inhibitors of Trypanosoma cruzi cruzain without detergent; purified cruzain, Z-FR-AMC fluorescence, no detergent; P25779; Potency, µM, for the others: max response, negative = inhibition, usual class: inhibitors; AID 1476; 200,000 compounds, 2.3% hits; active = well fitted curve in the direction sought with a large enough effect; inconclusive = small, poorly fitted or top-dose-only effect, or another doubt; inactive = no such curve, though single readings can be large; an effect the other way counts as inactive or inconclusive;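 also: plate controls were enzyme without inhibitor for no effect and buffer without enzyme for full effect; nearly all actives have a fitted effect of over 40% in size; top concentration of the series not given in the record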
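Purified cruzain at 1.5 nM, pre-incubated 15 min with compound at room temperature in 100 mM sodium acetate pH 5.5, 5 mM DTT, 0.00005% Triton X-100. Reaction started with 2 uM Z-FR-AMC; AMC fluorescence increase over 60 s gives rate.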
Lassa entry inh: Lassa virus entry inhibition; Lassa virus pseudotype entry inhibition, cell reporter; control for the full effect not named in the record; 300,000 compounds, 1.2% hits; Potency, µM (series often up to 37.9 µM), without a hit: at the top dose activity change, negative = inhibition, most hits filed as inhibitors; active means well fitted inhibition curve with a large enough effect; inconclusive means small, poorly fitted or top-dose-only effect, or effect the other way; inactive means flat fitted curve, though single readings scatter; tested in HEK293 cells; also: % is scaled to controls: 0 for no effect and ±100 for the full control effect; nearly all actives have a fitted effect of over 50% in size; luciferase read-out
RE007 growth inh: less growth of the S. pombe RE007 Vpr strain; AID 651644; Potency, µM (highest dose often 92.2 µM), without a hit: at the top dose activity change, negative = less growth; 360,000 compounds, 0.21% hits; S. pombe RE007 Vpr strain, BacTiter-Glo ATP luminescence, 24 h; control for the full effect not named in the record; active = well fitted falling curve with a large enough effect; inconclusive = small, poorly fitted or top-dose-only effect; inactive = no such curve, though single readings can be large or run the other way;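 also: % is scaled to controls: 0 for no effect and ±100 for the full control effect; nearly all actives have a fitted effect of over 50% in size; the assay follows cell death caused by Vpr and the record does not say whether a fall means rescue or toxicity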
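Fission yeast strain RE007, carrying one chromosomally integrated HIV-1 vpr copy, was seeded at OD 0.01 in PMG+AL medium with 23 nL pinned compound. After 24 h at 30 °C and 99% humidity, viability was read by BacTiter-Glo luminescence.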
NS1 function inh: inhibitors of influenza NS1 protein function | S. cerevisiae slowed by influenza A NS1, growth recovery by OD600 | Potency, µM (top dose mostly 46.1 µM), without a hit: at the top dose activity, positive = more growth | 270,000 compounds, 0.4% hits | AID 2326; also: actives are rising curves; nearly all actives have a fitted effect of over 50% in size
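Read-out: OD600 growth recovery of NS1-expressing budding yeast. Cells grown overnight at 30C in -URA glucose medium, washed, resuspended and diluted 1:100 in 2% galactose assay medium, pH 6.0. Same strain lacking NS1 served as positive control.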
SARS PLP yeast: SARS-CoV PLP inhibition in yeast | 330,000 compounds, 0.19% hits | S. cerevisiae expressing SARS-CoV PLpro, growth rescue; control for the full effect not named in the record | AID 485353 | Potency, µM (series often up to 32.9 µM), inactives show top-dose activity, positive = growth rescue; also: 0% is about no effect; nearly all actives have a fitted effect of over 55% in size; growth read by luminescence after 48 h
Numbers without * were called inactive; ? = inconclusive; / = no result given; [ ] = remark or other dose. Unless noted, calls follow the shape of the dose curve; as a rule, active means well fitted rising curve with a large enough effect; inconclusive means small, poorly fitted or top-dose-only effect; inactive means no such curve, though single readings can be large or run the other way. Potency is read from the fitted curve at half-maximal effect.

Short forms: A = 2A StopGo; B = Cruzain inh Det; C = MARV entry inh; D = Cruzain noTriton; E = Lassa entry inh; F = RE007 growth inh; G = NS1 function inh; H = SARS PLP yeast
> CCC(C)(C)NC(=O)CN(C(=O)CCC(=O)Nc1cc(C)ccn1)c1ccc2c(c1)OCCO2
  A: -13%; B: /; C: -23%[46.1 µM]; D: /; E: ?; F: -16%; G: -12%; H: 0%
> CCOc1ccc(NC(=O)CSC2=Nc3ccccc3C3=NC(Cc4ccccc4)C(=O)N23)cc1 (stereo unspecified)
  A: 3%; B: -3.2%; C: /; D: 7%; E: -29%[46.1 µM]; F: /; G: /; H: /
> O=C(Nc1ccccc1)Nc1ccc(Br)cc1F
  A: 48%[activator]; B: -1.0%; C: -9%; D: ?; E: ?; F: -7%; G: -12%; H: -19%
> CCOc1ccc(Cl)cc1/C=N/O
  A: /; B: -4.2%; C: -11%; D: 5%; E: -11%; F: -4%; G: -61%; H: 12%
> CCn1c(SCC(=O)Nc2cccc(OC)c2)nc2c(c1=O)SCC2
  A: -11%; B: /; C: 0%; D: /; E: -18%; F: 44%; G: /; H: -6%
> COc1ccccc1N1CCN(C(=O)CSc2nc3ccccc3[nH]2)CC1
  A: 1%; B: 3.2%; C: -1%; D: 0%; E: 5%; F: 3%; G: -4%; H: -1%
> O=C(CSc1nnnn1-c1ccc(Cl)cc1)NNC(=O)c1ccc([N+](=O)[O-])cc1
  A: -7%; B: -2.3%; C: 8%; D: ?; E: 11%; F: 3%; G: 15%; H: 1%
> CCOC(=O)[C@]1(C#N)[C@@H]2C=CC(C(C)=O)=CN2[C@@H](C(N)=O)[C@@H]1c1ccsc1
  A: -1%; B: -2.3%; C: ?; D: 5%; E: -1%; F: 7%; G: 25%; H: 5%
> C=CCc1ccc(OCCOCCOc2ccc(C)cc2[N+](=O)[O-])c(OC)c1
  A: ?; B: -5.0%; C: ?; D: 6%; E: -3%; F: -2%; G: -16%; H: 1%
> CCOC(=O)CSC1=C(C#N)C(c2ccc(OC)cc2)C2=C(CC(C)(C)CC2=O)N1 (stereo unspecified)
  A: -18%; B: -3.4%; C: -13%; D: 11%; E: -1%; F: -2%; G: 14%; H: 7%

Rewritten in markdown: entries from further up
| SMILES | 2A StopGo | Cruzain inh Det | MARV entry inh | Cruzain noTriton | Lassa entry inh | RE007 growth inh | NS1 function inh | SARS PLP yeast |
| --- | --- | --- | --- | --- | --- | --- | --- | --- |
| O=C(Nc1ccccc1)Nc1ccc(Br)cc1F | 48%[activator] | -1.0% | -9% | ? | ? | -7% | -12% | -19% |
| CCOc1ccc(Cl)cc1/C=N/O | / | -4.2% | -11% | 5% | -11% | -4% | -61% | 12% |
| CCn1c(SCC(=O)Nc2cccc(OC)c2)nc2c(c1=O)SCC2 | -11% | / | 0% | / | -18% | 44% | / | -6% |
| COc1ccccc1N1CCN(C(=O)CSc2nc3ccccc3[nH]2)CC1 | 1% | 3.2% | -1% | 0% | 5% | 3% | -4% | -1% |
| O=C(CSc1nnnn1-c1ccc(Cl)cc1)NNC(=O)c1ccc([N+](=O)[O-])cc1 | -7% | -2.3% | 8% | ? | 11% | 3% | 15% | 1% |
| CCOC(=O)[C@]1(C#N)[C@@H]2C=CC(C(C)=O)=CN2[C@@H](C(N)=O)[C@@H]1c1ccsc1 | -1% | -2.3% | ? | 5% | -1% | 7% | 25% | 5% |
| C=CCc1ccc(OCCOCCOc2ccc(C)cc2[N+](=O)[O-])c(OC)c1 | ? | -5.0% | ? | 6% | -3% | -2% | -16% | 1% |
| CCOC(=O)CSC1=C(C#N)C(c2ccc(OC)cc2)C2=C(CC(C)(C)CC2=O)N1 (stereo unspecified) | -18% | -3.4% | -13% | 11% | -1% | -2% | 14% | 7% |

Going on with the list.
Short forms: A = 2A StopGo; B = Cruzain inh Det; C = MARV entry inh; D = Cruzain noTriton; E = Lassa entry inh; F = RE007 growth inh; G = NS1 function inh; H = SARS PLP yeast
> CCN(c1ccccc1)S(=O)(=O)c1ccc(OCC(=O)Nc2cc(C)on2)cc1
  A: -5%; B: -4.0%; C: 1%; D: 1%; E: -5%; F: 0%; G: -3%; H: 4%
> CC(=O)c1ccc(NC(=O)Nc2ccc(S(=O)(=O)N3CCCC3)cc2)cc1
  A: 0%; B: /; C: 1%; D: /; E: ?; F: 8%; G: 7%; H: 2%
> CCOC(=O)C1=C(C)N=C2SC(C)C(=O)N2C1c1ccc(OC(C)=O)c(OCC)c1 (stereo unspecified)
  A: /; B: 2.2%; C: /; D: ?; E: /; F: /; G: 16%; H: 10%
> O=C(NCCc1ccncc1)Nc1ccc(F)cc1
  A: 4%; B: /; C: 0%; D: /; E: 1%; F: 3%; G: 1%; H: 0%
> COc1ccc(OC)c(NC(=O)C2CCN(S(=O)(=O)c3cccs3)CC2)c1
  A: 10%; B: 1.1%; C: -5%; D: -1%; E: -18%; F: -6%; G: 3%; H: -1%
> Cc1ccccc1-n1nnnc1SCC(N)=O
  A: 0%; B: 2.5%; C: ?; D: 3%; E: -6%; F: 1%; G: -2%; H: -4%
> CCOC(=O)c1c(C)[nH]c(C(=O)N2CCN(c3ccc(OC)cc3)CC2)c1C
  A: 28%; B: /; C: ?; D: /; E: 7.9µM*; F: 1%; G: /; H: -8%
> COc1ccc(NC(=O)c2cccc(N3C(=O)C4C5C=CC(C5)C4C3=O)c2)cc1 (stereo unspecified)
  A: -16%; B: /; C: -12%; D: /; E: 1%; F: -3%; G: 3%; H: 25%
> CC(NC(=O)CNC(=O)c1ccco1)c1ccc(S(N)(=O)=O)cc1 (stereo unspecified)
  A: 34%[activator]; B: /; C: 8%[46.1 µM]; D: /; E: 1%[46.1 µM]; F: 1%; G: 13%; H: 1%
> CC1CC(C)C(=NNC(N)=O)C(C(O)CC2CCC(=O)NC2=O)C1 (stereo unspecified)
  A: -11%; B: /; C: ?; D: /; E: ?; F: -4%; G: /; H: /
> CCOc1ccc(NC(=O)CC(C)S(=O)(=O)c2ccc3c(c2)NC(=O)CO3)cc1 (stereo unspecified)
  A: -4%; B: /; C: /; D: /; E: /; F: -4%; G: -1%; H: -4%
> O=C(Nc1cnccn1)Nc1ccccc1F
  A: 29%; B: /; C: 1%[46.1 µM]; D: /; E: ?; F: 1%; G: -14%; H: 1%
> CC(=O)c1cccc(NC(=O)c2ccco2)c1
  A: 25%; B: 0.3%; C: 1%; D: -5%; E: 0%; F: -21%; G: -52%; H: 1%
> COc1ccc(N(CC(=O)NCCSc2ccccn2)S(C)(=O)=O)cc1Cl
  A: -14%; B: 0.2%; C: 1%[46.1 µM]; D: 11%; E: -9%; F: -12%; G: 5%; H: -6%
> O=[N+]([O-])c1ccc(NC(=S)N2CCOCC2)cc1
  A: 38%[activator]; B: -6.6%; C: 25%; D: 1%; E: ?; F: 19%; G: 7%; H: 4%
> O=C(NCC(=O)N(Cc1ccccc1)C(C(=O)NC1CCCCC1)c1ccco1)c1ccco1 (stereo unspecified)
  A: -26%; B: -5.9%; C: -2%; D: -13%; E: -18%; F: -18%; G: 5%; H: 0%
> Cc1cccc(NC(=O)CN2C(=O)CCc3ccccc32)c1C
  A: 4%; B: -1.0%; C: /; D: -11%; E: 8%[46.1 µM]; F: /; G: /; H: /
> O=C(Nc1cccc2ccccc12)c1onc2c1CCCC2
  A: 48%[activator]; B: -2.0%; C: 2%; D: -14%; E: 27%; F: 14µM*; G: 5%; H: 0%

Source: PubChem BioAssay (National Center for Advancing Translational Sciences (NCATS))
